# KSHV LANA nucl = inhibitors of KSHV LANA-nucleosome binding, primary screen, biochemical, fluorescence polarization, FITC-LANA1-23, chicken nucleosomes; AID 720717, 2013; hit rate 0.3% among 51,000; z-score (concentration not given with the values); FITC-LANA1-23 / chicken nucleosome fluorescence polarization; hits give low values;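 active = both repeat wells score below -2 in polarization z-score versus plate sample wells, excluding overly bright wells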;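 also: 100 nL library stock added to about 30 µL; numbers are from one replicate; some results filed as inactive read as strong as hits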
#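 Test system: purified chicken nucleosomes with FITC-labelled LANA N-terminal peptide (1-23); Input: 240 nM purified chicken nucleosomes (480 nM peptide binding sites), final; Medium: TEN-BT buffer, pH 7.5; Timing: 10–45 min, room temperature; Technique: fluorescence polarization, 480 nm excitation, 535 nm parallel and perpendicular emission; Replication: duplicates.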
# BasE inh = BasE siderophore enzyme inhibitors, primary screen, biochemical, Acinetobacter baumannii ATCC 17978, fluorescence polarization; purified BasE, fluorescence polarization binding displacement; inhibition, % (test concentration not listed); hit rate 0.1% among 84,000; AID 485350, 2010;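 active = both replicates above 25% with normal brightness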;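 also: 0% = negative plate control signal and 100% = positive plate control signal; stock transfer was 100 nL into about 30 µL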
# Numbers without * were called inactive; nt = not tested or not shown; & = joins results of further samples. Only part of the results is shown; count on the stated rates, not on these rows.
SMILES,KSHV LANA nucl,BasE inh
O=C(OCc1ccc(F)cc1)c1cc(-c2ccco2)nc2ccccc12,nt,1.9
CC(C)(C)OC(=O)N/N=C\c1ccc[nH]1,-1,1.6
Cc1cccc(COc2ccccc2C(=O)O)c1,nt,0.1
COc1ccc2c(=O)c(Oc3ccccc3)coc2c1,0.48,1.6
COc1ccc(CNc2ccc(-c3ccc(OC)cc3)nn2)cc1,0.37,-1.8
CNS(=O)(=O)c1cn(CC(=O)NC2CCCC2)cc1S(=O)(=O)NC,nt,-0.8
CN(C)CCCO[C@H]1[C@@H](C(O)CO)OC2OC(C)(C)O[C@@H]21 (stereo partly specified),-0.47&-0.47,0.5
CCOc1ccnc(SCC(=O)CC(=O)c2ccccc2)c1C#N,0.43,1.0
O=CNCCc1c[nH]c2ccccc12,-1.3,1.8
COc1ccc(C(=O)COC(=O)CCn2c(C)csc2=O)cc1Cl,nt,1.0
CC(C)COC(=O)n1c(=O)oc2ccc(S(=O)(=O)N3CCCCC3)cc21,0.61,2.5
CN(C(=O)C(Cl)Cl)c1ccc(OC(=O)c2ccco2)cc1,-0.2&-0.026,-0.2
O=C(c1cccs1)N(Cc1nc2sc3c(c2c(=O)[nH]1)CCCC3)C1CCCC1,0.043,-0.6
Cc1cc(C(=O)CSc2nc3ccccc3c(=O)[nH]2)c(C)n1C,nt,0.7
COC(=O)c1ccc(OCC(=O)c2ccc[nH]2)cc1,nt,-0.3
COc1ccc2c(c1)nnc1n[nH]c(=O)n12,nt,12
CC(C)CSC1=NSC2=NC(=O)/C(=C\c3ccc(SCc4ccco4)o3)C(=N)N12,2.3,-6.0
CN(C)S(=O)(=O)c1cccc(CSc2n[nH]c(-c3cccs3)n2)c1,nt,0.8
CC(C)(C)c1ccc(NC(=O)N(CCC#N)CCc2ccccn2)cc1,-0.62,nt
O=C(CS(=O)(=O)Cc1ccccc1)Nc1cc(F)cc(F)c1,-0.52,1.6
CCOC(=O)c1nc(NCCCN2CCN(c3cc(C)ccc3C)CC2)c2ccccc2n1,0.26,-0.8
COc1ccccc1NC(=O)CSc1cc(=O)n(C)c2ccccc12,-0.29,-1.3
CCN(CCS(=O)(=O)c1ccc(Cl)cc1)S(=O)(=O)c1ccc(Cl)cc1,nt,-2.1
COC(=O)c1c(C)oc(C)c(C(=O)OC)c1=O,nt,0.9
O=C(OCCCn1c(=O)[nH]c2ccccc21)c1ccc2c(=O)n3c(nc2c1)CCCCC3,nt,1.8
Cc1nnn(C23CC4CC(CC(C(=O)O)(C4)C2)C3)n1,0.067,1.3
O=c1c2ccccc2c(-c2cc(C(F)(F)F)cc(C(F)(F)F)c2)nn1CCO,nt,2.2
Fc1ccc2c(c1)-c1nocc1CS2,-0.74,0.9
CCOC(=O)c1oc2ccc(S(=O)(=O)N3CCC(c4nnc(-c5ccc(OC)cc5)o4)CC3)cc2c1C,-0.5,3.4
COc1ccc2c(C)cc(NN)nc2c1,nt,4.2
C/C=N/NC(=O)c1ccccc1,0.74,-0.6
CC(C)(C)Oc1ncc(Br)c(OC(C)(C)C)n1,0.37,0.6
N=c1c(C(=O)NCC2CCCO2)cc2c(=O)n3ccccc3nc2n1CCCN1CCOCC1 (stereo unspecified),nt,2.3
CC(=O)N1CCC(N(CCCN2CCC(C)CC2)C(=O)Nc2ccc(Br)c(C)c2)CC1,-0.45,-2.6
CC1CCN(CC(=O)Nc2ccc3ccccc3c2)CC1,-0.84,-1.1
CCCCN(C)S(=O)(=O)c1cc2c(cc1C)N(C(C)=O)CCO2,-1.5,0.6
CCOC(=O)NCc1n[nH]c(=O)c2ccccc12,-0.78,1.2
CCOC(=O)N1CCC(NCC(O)COc2ccccc2C(C)C)CC1 (stereo unspecified),nt,0.7
COc1cccc(-c2ocnc2C(=O)NC2CCc3ccccc32)c1 (stereo unspecified),-0.99,0.7
COC(=O)c1ccsc1NC(=O)c1cccc(C)c1,0.99,0.8
CN(c1ccc(C(=O)N2CCc3ccccc3C2)cc1)S(C)(=O)=O,0.15,-0.3
CCN(CC)c1ncnc2sc(-c3ccccc3)cc12,0.43,nt
O=C(Nc1nccs1)c1ccc(-c2ccc(Cl)cc2)o1,-0.38,0.8
Cc1cc(C(=O)N2CCN(C3c4ccccc4-c4ccccc43)CC2)c(C)o1,-0.58,nt
CC(C)CC(NC(=O)C1CCC(C)CC1)C(=O)NCc1ccccn1 (stereo unspecified),-0.45,1.5
CC1(C)SC(c2ccc(C3NC(C(=O)O)C(C)(C)S3)cc2)NC1C(=O)O (stereo unspecified),-0.92,0.8
CCN(CC)S(=O)(=O)c1cccc(C(=O)N(Cc2cccs2)CC2CCCO2)c1 (stereo unspecified),nt,0.6
Cc1cccc(-n2c(SCc3c(C)noc3C)nc3ccccc3c2=O)c1,nt,0.8
Cc1c(C(=O)OCC(=O)c2ccc[nH]2)sc2nc3n(c(=O)c12)CCC3,nt,-4.3
COc1cc(NC(=O)COc2cc(C)ccc2C)c(C(=O)O)cc1OC,-0.97,0.1
CCOc1cccc(S(=O)(=O)N=C2C=C(C(C)(C)C)C(=O)C(C(C)(C)C)=C2)c1,nt,3.0
c1ccc(CCSc2nnc3sc4ccccc4n23)cc1,nt,-1.4
O=C(NC(=S)N1CCOCC1)c1cn(-c2ccccc2)nc1-c1cccnc1,nt,7.5
Cc1ccc2c(c1)cc(CN(Cc1ccco1)C(=O)NCc1ccccc1)c1nnnn12,-0.66,2.7
O=S(=O)(Nc1ccc(O)cc1)c1cccs1,0.42,1.4
CC(N=C1NS(=O)(=O)c2ccccc21)C(=O)N1CCN(S(=O)(=O)c2cccs2)CC1 (stereo unspecified),nt,-0.3
CC1CN(S(=O)(=O)c2ccc(C(=O)Nc3ccccc3)cc2)CC(C)O1 (stereo unspecified),-0.18,-0.1
O=S(=O)(Cc1nc(CSc2ccccn2)cs1)c1ccc(Cl)cc1,nt,-0.9
CS(=O)(=O)Nc1ccc(C#N)cc1,-0.063,2.8
CCN(CCNCc1c(C(=O)O)n(C)c2ccccc12)c1ccccc1,0.61,3.4

# Remaining list, next part.
SMILES,KSHV LANA nucl,BasE inh
CC(C)Cn1c(=S)[nH]c2ccccc21,nt,0.6
CC(O)c1nc2cc3ccccc3cc2[nH]1 (stereo unspecified),2.1,-0.9
NC(=O)c1ccc(-n2nnnc2-n2ccnc2)cc1,-0.43,3.4
CCN1CCN(c2ccc(N=Cc3cc(I)ccc3O)cc2)CC1,-0.29,3.4
C=CCNC(=O)Cc1c(O)c2ccccc2[nH]c1=O,0.22,1.2
O=P(CCCO)(Cc1ccccc1)Cc1ccccc1,nt,-14
O=C(OCc1ncc(-c2ccccc2)o1)c1nc(-c2ccccc2)n(-c2ccccc2)n1,nt,0.0
O=C(Cc1ccc(S(=O)(=O)N2CCCC2)s1)Nc1nc2c(s1)CCCC2,nt,-2.5
COc1cccc(C(=O)c2sc3nsc(SCc4ccccc4)c3c2N)c1,nt,-0.7
CC(C)CCn1nc(C(=O)OCC#N)c2ccccc2c1=O,nt,1.0
NC(N)=N/N=C/c1c(Cl)cccc1Cl,0.21&-0.2,-2.0
CCc1ccc(-c2nc(CN3CCCC(C(=O)NCc4ccc(Cl)cc4)C3)c(C)o2)cc1 (stereo unspecified),0.75,0.0
CC(NCC(=O)NN)c1ccccc1 (stereo unspecified),nt,2.4
CC1CCCCC1NC(=O)NC(=O)CSc1ccc2c(c1)OCCO2 (stereo unspecified),nt,-0.6
CN(C)c1ccc(C(=O)N2CCCC2c2nnc(SCc3ccccc3)n2C)cc1 (stereo unspecified),-1.1,2.9

# Six records drawn at random from those above, as already listed:
SMILES,KSHV LANA nucl,BasE inh
CCN1CCN(c2ccc(N=Cc3cc(I)ccc3O)cc2)CC1,-0.29,3.4
CC1CCCCC1NC(=O)NC(=O)CSc1ccc2c(c1)OCCO2 (stereo unspecified),nt,-0.6
CC(C)CCn1nc(C(=O)OCC#N)c2ccccc2c1=O,nt,1.0
O=C(OCc1ncc(-c2ccccc2)o1)c1nc(-c2ccccc2)n(-c2ccccc2)n1,nt,0.0
NC(N)=N/N=C/c1c(Cl)cccc1Cl,0.21&-0.2,-2.0
NC(=O)c1ccc(-n2nnnc2-n2ccnc2)cc1,-0.43,3.4

# Next compounds.
SMILES,KSHV LANA nucl,BasE inh
CN1CCN(C2=Nc3ccccc3Sc3ccc(Cl)cc32)CC1,-0.32,nt
OCc1c[nH]c(=S)n1Cc1ccccc1,nt,1.7
CCN(CC)C(=O)n1cnc2cc(C)c(C)cc21,nt,-1.7
CCOC(=O)c1ccc(N2N=C(C(F)(F)F)/C(=C/C=C/c3ccco3)C2=O)cc1,nt,1.1
CCCn1c(NC(=O)NCc2ccccc2)c2ccccc2nc1=O,-1.6,0.9
Cc1ccc(S(=O)(=O)NC(=O)NC2CCS(=O)(=O)C2)cc1 (stereo unspecified),nt,-0.3
CCOC(=O)c1ccc2nc(C(F)(F)F)nc(N3CCOCC3)c2c1,-0.52,0.3
CN(CC(=O)Nc1ccc(N2CCOCC2)cc1)Cn1nc(Nc2ccccc2F)sc1=S,nt,-0.4
CCc1ccc(N=C2NC(=O)CS2)cc1,0.78,-2.2
CCC1=Nc2cc(C(=O)NCc3ccco3)ccc2Sc2ccccc21,-0.35,0.9
Cc1ccc(NC(=O)CCOc2ccccc2)cc1,0.65,3.6
CC(=O)O[C@H]1C[C@@]2(C)[C@@H](C[C@@H](O)[C@H]3[C@@]4(C)CC[C@@H](O)[C@@H](C)[C@@H]4CC[C@@]32C)/C1=C(\CCC=C(C)C)C(=O)O,0.15,-3.2
CC(C)c1cc(C(=O)O)c2cnn(C(C)C)c2n1,nt,0.8
Cc1noc(C)c1COc1ccc(C(=O)OC2CCOC2=O)cc1 (stereo unspecified),nt,0.0
CCc1ccn2cc(-c3ccc4c(c3)OCO4)nc2c1,-0.91,-1.4

# Another view of some results above:
# Every second line gives: KSHV LANA nucl, BasE inh
- CCc1ccn2cc(-c3ccc4c(c3)OCO4)nc2c1
  -0.91, -1.4
- Cc1noc(C)c1COc1ccc(C(=O)OC2CCOC2=O)cc1 (stereo unspecified)
  nt, 0.0
- CCN(CC)C(=O)n1cnc2cc(C)c(C)cc21
  nt, -1.7
- CCOC(=O)c1ccc2nc(C(F)(F)F)nc(N3CCOCC3)c2c1
  -0.52, 0.3

# Further records:
SMILES,KSHV LANA nucl,BasE inh
CCn1c(-c2ccco2)nn(CN(C)CC(=O)Nc2ccc(F)c(F)c2F)c1=S,nt,-0.2
Cc1ccccc1NC(=O)CC(=O)Nc1ccccc1C,nt,2.4
S=c1[nH]nc(Cn2cncn2)o1,nt,2.0
CCN(CC)CCNc1ccc(CO)c2sc3ccccc3c(=O)c12,-0.5&0.9&0.12,-0.3&-0.8
O=C(O)c1ccccc1CSc1nc2ccccc2[nH]1,nt,1.7
N#Cc1ccsc1NC(=O)c1ccncc1,0.37,6.5
O=C(Cn1nnc(-c2ccncc2)n1)N(C1CCCCC1)C1CCCCC1,2.9,-2.7
CNc1sc(C(=O)c2ccc(Cl)cc2)c(N)c1C(N)=O,nt,-4.2
CCN(CC)c1ccc(/C=N/N2C(=O)c3ccccc3C2=O)c(O)c1,0.46,3.8
COc1ccc(C2CC(c3cc(Cl)ccc3O)=NN2)cc1 (stereo unspecified),1.1,-4.4
O=C(NC1CCCN(c2nc3ccccc3s2)C1)N1CC=CCC1 (stereo unspecified),-1.3,-2.6
C(=C\c1ccccc1)/CNCCCN1CCOCC1,-0.21,0.9
Cn1c(=O)n(C)c2cc(/C=C3/NC(=O)NC3=O)ccc21,nt,1.3
CC(NC(=O)c1ccc(C(C)(C)C)cc1)C(N)=O (stereo unspecified),nt,2.6
Cc1nn(CC(=O)N(C)C2CCCCC2)c(=S)n1C,nt,0.1

# Of the compounds above, 2 have bromine:
SMILES,KSHV LANA nucl,BasE inh
CC(C)(C)Oc1ncc(Br)c(OC(C)(C)C)n1,0.37,0.6
CC(=O)N1CCC(N(CCCN2CCC(C)CC2)C(=O)Nc2ccc(Br)c(C)c2)CC1,-0.45,-2.6

# The list continues.
SMILES,KSHV LANA nucl,BasE inh
O=C(CSc1cccc[n+]1[O-])c1cc2c3c(c1)CC(=O)N3CCC2,nt,1.8
COc1cc(CC(=O)OCC(=O)C(C)(C)C)cc(OC)c1OC,nt,1.1
Cc1cc(NC(=O)CSc2nc(C3CCCCC3)nc3sc(C)c(C)c23)no1,-0.49,1.0
CN(CC(=O)Nc1ccc2c(c1)OCCCO2)Cc1ccc2c(c1)OCCO2,nt,-0.1
CC(C)Cn1c(=S)[nH]c2cc(C(=O)NCc3ccco3)ccc2c1=O,nt,-0.6
Cc1csc(-c2coc3c(C)c(O)c(CN4CCN(CCO)CC4)cc3c2=O)n1,-1.5,0.8
O=C(O)CCC(=O)Nc1ccccc1Cl,1.4,-3.0
CCN(CC)CCc1nnc(NC(=O)c2ccccc2)s1,1.3,0.1
C[C@H]1O[C@@H](O[C@H]2[C@@H](O)C[C@H](O[C@H]3[C@@H](O)C[C@H](O[C@H]4CC[C@]5(C)C6CC[C@]7(C)[C@@H](C8=CC(=O)OC8)CC[C@]7(O)C6CC[C@@H]5C4)O[C@@H]3C)O[C@@H]2C)C[C@H](O)[C@@H]1O (stereo partly specified),0.4&-0.0005,-1.4
CCOc1cc(C)cc2oc(=O)cc(CC)c12,0.046,3.8
CCOC(=O)c1cc(C(=O)NN)c(=O)[nH]c1C,-0.15,1.9
COC(=O)c1sc(S(=O)(=O)Nc2cccc(C(F)(F)F)c2)c(C(=O)OC)c1C,0.53,-0.2
CN(C)S(=O)(=O)c1ccc(C(=O)Nc2ncnc3sccc23)cc1,0.63,-0.8
Cc1ccc(CNCC(O)COC2CCCc3ccccc32)n1C (stereo unspecified),nt,0.1
